# From PubChem
# CSC inhib – blocks cancer stem cells. cancer stem cell-like cells viability, luminescence. inhibition, % at 7.5 µM. 1.1% of 300,000 active. AID 2717;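 active = mean at 75% or more and at least half the replicates too; tested in HMLE shEcad cells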;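 also: 0% = median of negative and 100% = median of positive control wells; the first replicate is given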
# Rce1 inhib – yeast Ras-converting enzyme inhibition; Q03530; yeast membranes, quenched prenylated peptide cleavage fluorescence; calls only; 0.27% of 290,000 active;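 active = fall in fluorescence gain of 50% or more versus controls, with final raw signal at or below 3038400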;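 also: plate controls were neutral control wells for no effect and wells lacking membranes for full effect; tested at 10 µM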
# Target sequence (Q03530 whole entry, looked up): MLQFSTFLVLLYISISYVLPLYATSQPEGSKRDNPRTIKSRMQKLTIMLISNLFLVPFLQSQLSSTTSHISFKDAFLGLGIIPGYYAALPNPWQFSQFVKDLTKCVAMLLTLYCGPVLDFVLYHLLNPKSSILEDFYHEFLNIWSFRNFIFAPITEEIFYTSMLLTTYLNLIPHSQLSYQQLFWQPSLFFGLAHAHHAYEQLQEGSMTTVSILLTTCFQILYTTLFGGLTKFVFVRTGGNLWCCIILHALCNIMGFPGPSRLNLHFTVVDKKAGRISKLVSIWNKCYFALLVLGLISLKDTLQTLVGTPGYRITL
# Yeast UUG start – alters start codon recognition fidelity in yeast; AID 602363; 0.13% of 350,000 active; activity score, % at 18.7 µM; S. cerevisiae UUG-firefly luciferase reporter, luminescence/redox ratio;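 active = replicate mean at a twofold rise or more, about +100% in these data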;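 also: firefly luciferase made from a UUG start codon reports start codon fidelity; reporter light over untreated wells divided by growth signal over untreated wells; some hits fall short of that in this replicate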
# PABP polyA inh – PABP-poly(A) binding inhibition; PABP-poly(A) RNA binding, fluorescence polarization; inhibition, % at 35 µM; 1% of 290,000 active; AID 2014;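 active = 50% or more with normal probe brightness, or confirmed in later tests; about a fifth of its hits are not listed in these tables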;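 also: calls also rest on retests at 20 µM and on dose response follow-up; controls were probe without protein and protein plus probe with vehicle; some compounds called inactive have numbers as strong as hits; many hits fall short of the cut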
# Target sequence (P11940 whole entry, looked up): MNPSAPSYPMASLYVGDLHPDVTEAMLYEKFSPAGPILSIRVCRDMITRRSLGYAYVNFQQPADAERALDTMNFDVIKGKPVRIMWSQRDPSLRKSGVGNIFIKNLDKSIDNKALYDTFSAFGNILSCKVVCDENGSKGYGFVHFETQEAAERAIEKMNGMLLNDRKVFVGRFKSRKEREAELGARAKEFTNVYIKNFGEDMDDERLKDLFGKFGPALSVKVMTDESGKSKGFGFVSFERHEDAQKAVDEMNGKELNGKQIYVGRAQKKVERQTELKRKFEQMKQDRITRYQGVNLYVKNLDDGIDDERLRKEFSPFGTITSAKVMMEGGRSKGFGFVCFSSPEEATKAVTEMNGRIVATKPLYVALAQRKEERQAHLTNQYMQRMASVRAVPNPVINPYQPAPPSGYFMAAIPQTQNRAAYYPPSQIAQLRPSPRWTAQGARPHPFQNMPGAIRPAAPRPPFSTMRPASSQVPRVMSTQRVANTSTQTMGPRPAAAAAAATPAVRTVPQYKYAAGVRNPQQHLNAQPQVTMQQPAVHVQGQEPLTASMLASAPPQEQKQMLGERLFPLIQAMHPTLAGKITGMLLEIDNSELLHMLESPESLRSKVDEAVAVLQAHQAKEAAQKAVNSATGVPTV
# HIV Env fusion – HIV envelope-mediated fusion inhibition; HeLa-JRFL Env/CEM21 cell fusion, luciferase; inhibition, % at 12.3 µM; 1.1% of 360,000 active; AID 651610;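 active = mean replicate inhibition score of at least 50 and every replicate individually at or above 50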;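 also: 0% = plate neutral controls and 100% = maraviroc near 300 nM; one replicate is shown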
# eIF4H FP inh – inhibitors of RNA binding by human eIF4H; Q15056; eIF4H fluorescence polarization binding assay; inhibition, % at 35 µM; 0.94% of 290,000 active; AID 2012;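 active = 50% or more with normal probe brightness, or confirmed in later tests; about a fifth of its hits are not listed in these tables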;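 also: calls also rest on retests at 20 µM and on dose response follow-up; 0% = protein and probe with vehicle and 100% = probe without protein; strong numbers were not always called active; many hits fall short of the cut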
# MT1-MMP act inh – blocks activation of human MT1-MMP; HT1080 RFP-PRO-GFP cells, GFP/RFP ratio fluorescence, overnight; percent of plate control window, DMSO zero; GFP/RFP ratio change, % at 20 µM; 0.061% of 360,000 active; AID 651647;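 active = GFP/RFP ratio change of at least 30% with cell ATP level not reduced by more than half and red fluorescence within 50% of control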; also: strong numbers were not always called active
#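 Assay system: HT1080 cells carrying an RFP-PRO-GFP reporter | Dosing: Single dose of 20 µM compound, 1% DMSO final | Incubation: Cells overnight before dosing, compound overnight, 37 °C, 5% CO2 | Evaluation: GFP/RFP fluorescence ratio | Control set: DMSO and RFP-L50D-GFP cell wells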
# MT1-MMP act inh RFP – also measured in MT1-MMP act inh; calls as there; RFP signal change, %; measured here: RFP expression control read;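 0 = vehicle wells; hits needed this value within 50% of zero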
# The depositor's hits bear a star; i = inactive; x = not tested or not shown.
# Sample of the layout, 3 compounds:
SMILES,CSC inhib,Rce1 inhib,Yeast UUG start,PABP polyA inh,HIV Env fusion,eIF4H FP inh,MT1-MMP act inh,MT1-MMP act inh RFP
COc1ccc(-c2nc(-c3ccc(C(=O)O)cc3)no2)cc1,0,i,-65,x,-120,x,6,6
Cn1cnnc1SCC(=O)Nc1ccccc1F,13,i,-14,-6,16,2,1,4
CN(CCO)c1nc(N)c(C#N)c(CC#N)c1C#N,-8,x,-26,20,-5,-10,-5,-4

# All compounds of this part, from the start:
SMILES,CSC inhib,Rce1 inhib,Yeast UUG start,PABP polyA inh,HIV Env fusion,eIF4H FP inh,MT1-MMP act inh,MT1-MMP act inh RFP
COc1ccc(-c2nc(-c3ccc(C(=O)O)cc3)no2)cc1,0,i,-65,x,-120,x,6,6
Cn1cnnc1SCC(=O)Nc1ccccc1F,13,i,-14,-6,16,2,1,4
CN(CCO)c1nc(N)c(C#N)c(CC#N)c1C#N,-8,x,-26,20,-5,-10,-5,-4
O=C(/C=C/c1ccc([N+](=O)[O-])cc1)NCc1ccco1,-12,i,-3,-9,-1,-12,7,4
COC(=O)[C@]1(Cc2ccccc2)N[C@H](CN(C)C(=O)Nc2ccc(F)cc2)[C@@H]2C(=O)N(C)C(=O)[C@@H]21,-5,x,-7,x,-28,x,4,5
Cc1cc(C(F)F)n2nc(C(=O)Nc3ccc(S(=O)(=O)N4CCCCCC4)cc3)nc2n1,-9,i,-31,x,x,x,1,6
COc1ccc(Cl)cc1N(C(C)=O)c1nc(C)cc(C)c1C#N,-15,i,-3,2,14,-10,-1,0
CN(Cc1c(C(=O)N/N=C/c2ccccc2)nnn1-c1nonc1N)c1ccccc1,-9,i,8,5,0,3,1,7
O=c1[nH]nnc2c1sc1nc(N3CCOCC3)c3c(c12)CCCC3,5,i,-17,x,-265,x,7,-4
COC(=O)/C=C/c1ccc(-n2ccnc2)cc1,-46,i,x,15,-15,8,0,-2
Cc1cc(C)nc(NN2C(=O)/C(=C/c3ccccc3)SC2=S)n1,-3,i,-20,4,-30,-18,6,3
Cn1c(-c2nnn(-c3ccc(F)cc3)n2)cc2ccccc21,-1,i,x,2,-288,10,x,x
CCCCc1nc2ccccc2[nH]1,-9,i,x,-5,-7,-6,5,7
Cc1ccc(NC(=O)C2CCN(S(=O)(=O)c3cc([N+](=O)[O-])ccc3Cl)CC2)nc1,25,x,-8,x,x,x,8,-28
CCCCNC(=O)c1cc2c(=O)n3cccc(C)c3nc2s1,-2,i,-12,-4,-13,6,1,4
O=C1CCCN2N=C(SCC(=O)Nc3ccc(Br)cc3)SC2=N1,0,i,-16,5,-5,-2,5,0
COc1ccccc1CNC(=O)CN1C(=O)NC(C)(c2ccc(C(C)(C)C)cc2)C1=O (configuration not stated),-9,i,-5,6,-5,1,-1,-8
CNC(=O)c1ccccc1F,0,i,-16,10,-42,-1,-2,2
O=C(NCC1CCCO1)c1nn2c(c1Cl)NC(c1ccc(F)cc1)CC2C(F)(F)F (configuration not stated),-16,x,20,0,22,11,-1,-9
O=C(N/N=C/c1cc(Br)c(O)c(Br)c1)c1cccnc1,-16,i,-5,10,2,-6,0,0
CC1CCCC(NC(=O)C2CCN(S(=O)(=O)c3cccc4nonc34)CC2)C1C (configuration not stated),-11,i,-49,-5,-2,2,3,3
CNC(=O)C1=NCCCc2cc(OC)c(OC)cc21,2,i,x,-5,-32,-5,-3,1
Cc1cc(C)c2ccc(N)nc2c1O,25,i,-30,-6,-68,6,10,1
CN1C(=S)SC(/[N+]([O-])=C/c2cccnc2)C1(C)C (configuration not stated),-11,i,-12,5,-86,3,3,-1

# Some of the entries so far, with tabs.
Structure	CSC inhib	Rce1 inhib	Yeast UUG start	PABP polyA inh	HIV Env fusion	eIF4H FP inh	MT1-MMP act inh	MT1-MMP act inh RFP
O=C1CCCN2N=C(SCC(=O)Nc3ccc(Br)cc3)SC2=N1	0	i	-16	5	-5	-2	5	0
COc1ccccc1CNC(=O)CN1C(=O)NC(C)(c2ccc(C(C)(C)C)cc2)C1=O (configuration not stated)	-9	i	-5	6	-5	1	-1	-8
CNC(=O)c1ccccc1F	0	i	-16	10	-42	-1	-2	2
O=C(NCC1CCCO1)c1nn2c(c1Cl)NC(c1ccc(F)cc1)CC2C(F)(F)F (configuration not stated)	-16	x	20	0	22	11	-1	-9
O=C(N/N=C/c1cc(Br)c(O)c(Br)c1)c1cccnc1	-16	i	-5	10	2	-6	0	0
CC1CCCC(NC(=O)C2CCN(S(=O)(=O)c3cccc4nonc34)CC2)C1C (configuration not stated)	-11	i	-49	-5	-2	2	3	3
CNC(=O)C1=NCCCc2cc(OC)c(OC)cc21	2	i	x	-5	-32	-5	-3	1

# Following part
SMILES,CSC inhib,Rce1 inhib,Yeast UUG start,PABP polyA inh,HIV Env fusion,eIF4H FP inh,MT1-MMP act inh,MT1-MMP act inh RFP
S=c1[nH]nc(Cn2c(-c3ccccn3)nc3ccccc32)n1-c1ccc2c(c1)OCCO2,1,i,-26,4,-2,-2,7,5
O=c1c2c([N+](=O)[O-])cc([N+](=O)[O-])cc2sn1-c1ccc(Br)cc1,-5,x,x,0,x,-1,7,2
O=C(N/N=C/c1ccc2c(c1)OCO2)c1ccccn1,23,i,-61,3,x,-4,4,6
COc1cc(C(=O)Nc2ccc(N(C)C)cc2)c([N+](=O)[O-])cc1OC,3,i,1,-5,14,2,1,1
CN1CCN(c2ccc(S(=O)(=O)N3CCCCC3)cc2[N+](=O)[O-])CC1,12,i,1,-7,20,0,3,-2
Cc1cc2nc(-c3ccc(SCC(=O)Nc4ccc(S(=O)(=O)NC5CC5)cc4)nc3)[nH]c2cc1C,14,i,x,-1,x,-7,5,-6
CC(C)Oc1ccc2ccccc2c1C=O,-1,i,-23,3,x,-6,-2,5
CCOC(=O)c1c(NC(=O)C2CC(Cl)=CCC2C(=O)O)sc2c1CC(C)(C)OC2 (configuration not stated),1,i,x,4,14,0,0,4
O=C(O)c1[nH]c2ccccc2c1C(c1cc(Cl)cc([N+](=O)[O-])c1O)c1c(C(=O)O)[nH]c2ccccc12,-9,i,-10,47,3,27,3,5
COc1ccc(N2CCN(S(=O)(=O)c3c(C)n(C)c(=O)n(C)c3=O)CC2)cc1,-11,i,-5,1,3,-9,0,1
COc1ccc(C(=O)Nc2ccc3cn[nH]c3c2)c(OC)c1,-8,i,x,-3,-23,-2,0,-3
O=[N+]([O-])c1ccc(S(=O)(=O)Nc2nc3ccccc3nc2Nc2ccccc2)cc1,6,x,x,0,23,-10,-5,-5
Cc1ccc(NC(=O)CC2(CC(=O)O)CCCC2)cc1,-5,i,-17,2,6,3,-5,-2
COCCn1c(COC)nc2ccccc21,-11,i,-12,3,x,-2,-5,7
CCC1CCCCN1C(=O)c1ccc(OC2CCN(Cc3ccccn3)CC2)cc1 (configuration not stated),-3,i,-6,-4,-4,9,-1,2
CN(C)CCCn1c2c(c(SCC(=O)Nc3cccc4ccccc34)nc1=O)CCCC2,-18,i,11,x,x,x,0,5
CC(C)(CSc1ccccn1)NS(=O)(=O)c1ccccc1,-2,i,x,10,x,4,-4,1
CCN(CC)S(=O)(=O)c1cccc(C(=O)Nc2ccc3c(c2)OCO3)c1,0,i,x,1,-16,0,x,x
COC(=O)c1ccc(NC(=O)CN2CCN(c3ccc(Cl)cc3)CC2)cc1,x,i,-3,-5,x,4,2,1
COC/C=C/C1=CC2=CC(=O)C(C)(OC(=O)c3cnc4ccccc4n3)C(=O)C2=CN1CC1CC1 (configuration not stated),-6,i,-1,x,x,x,5,6
Cc1ccc2oc(=O)n(CC(=O)N3CCOCC3)c2c1,-8,i,-2,6,2,-6,1,3
COC(=O)c1cc(Cl)ccc1NCC(N)c1ccccc1 (configuration not stated),x,x,-2,x,36,x,5,14
COC(=O)c1ccccc1NC(=O)C(C)n1nc(C)c2c(C)n(-c3ccccc3)nc2c1=O (configuration not stated),6,i,-8,6,5,0,-5,-3
Cc1ccc(NS(=O)(=O)c2cccc(C(=O)Nc3cc(C)on3)c2)cc1,-4,i,-4,0,13,-2,1,-16
COc1cc2c(cc1NC(=O)COC(=O)c1ccccc1)oc1ccccc12,-10,i,x,1,x,2,x,x
COc1ccc(CCNC(=O)COc2ccc(S(=O)(=O)NCC(C)C)cc2Cl)cc1OC,-6,i,x,-8,x,-1,1,-6
O=C(c1ccccc1-c1ncc[nH]1)N1CCc2c([nH]c3ccccc23)C1c1ccccn1 (configuration not stated),-10,i,x,3,28,-3,-2,0
CC(NCc1ccc(S(N)(=O)=O)cc1)C(=O)N1CCc2ccccc21 (configuration not stated),6,i,x,5,-12,3,1,2
CCCN1CCC(CCOc2ccccc2)(C(=O)OCC)CC1,-4,i,-10,0,-3,-8,0,1
CC(C)(C)OC(=O)C[C@@H]1C/C=C\C[C@@H](CC(=O)NCCO)C(=O)NC[C@@H](c2ccccc2)OC1=O,-16,x,-9,x,1,x,2,5
CC1CCCN(C(=O)CSc2n[nH]c(-c3cccs3)n2)C1 (configuration not stated),2,i,-11,x,-4,x,1,-1
O=C(Nc1ccc(F)c(F)c1)C1CCN(S(=O)(=O)c2cccs2)CC1,0,x,-15,x,11,x,-4,-11
O=C(COC(=O)CCNS(=O)(=O)c1cccc(C(F)(F)F)c1)NC(=O)NC1CCCCC1,-15,i,-3,6,-17,-7,0,1
CCCCN(C(=O)C(C)N1C(=O)c2ccccc2C1=O)c1c(N)n(CCCC)c(=O)[nH]c1=O (configuration not stated),-9,x,-21,x,x,x,4,4
O=C1N/C(=N\N=C\c2cccs2)SC1Cc1cccc(Cl)c1 (configuration not stated),63,i,x,29,-2,5,-1,-10
Cc1cc(S(=O)(=O)N2CCCC(C(=O)Nc3ccc(C(=O)O)cc3)C2)ccc1Cl (configuration not stated),-11,i,x,4,7,1,7,4
COc1ccc(CNC(=O)Cc2cn(C)c3ccccc23)c(OC)c1,-10,i,-6,-3,3,-15,1,1
Cc1nc2cc(C(=O)N3CCc4ccccc43)ccc2n1-c1ccc(F)c(F)c1,-10,i,1,-8,-5,-16,0,6
O=C(Nc1cccc(S(=O)(=O)N2CCCCC2)c1)c1c2c(nc3ccccc13)CCN(Cc1ccccc1)C2,-15,i,x,7,-24,-2,-28,-7
O=[N+]([O-])c1cnn(-c2nc(-c3ccco3)cc(C(F)(F)F)n2)c1,-16,i,-7,-4,11,0,5,0
Nc1ccccc1-c1nnn(CC(=O)N2CCCc3ccccc32)n1,4,i,-9,-6,x,-5,-1,1
O=C1CN(C(=O)COC(=O)c2cccc(OCc3ccccc3)c2)c2ccccc2N1,11,i,x,29,6,-14,3,4
COc1ccc2oc(C(=O)N3CCN(C(c4ccccc4)c4ccccc4)CC3)c(C)c2c1,12,i,-13,x,x,x,-8,-10
CC1(C)C(=O)N(c2ccccc2Cl)C(=O)c2ccccc21,-7,i,-15,-2,12,-5,0,-2

# Only Yeast UUG start and CSC inhib, for 3 of the compounds above:
mol	Yeast UUG start	CSC inhib
CC1CCCC(NC(=O)C2CCN(S(=O)(=O)c3cccc4nonc34)CC2)C1C (configuration not stated)	-49	-11
CNC(=O)C1=NCCCc2cc(OC)c(OC)cc21	x	2
Cc1cc(C)c2ccc(N)nc2c1O	-30	25
